Vif TR-FRET = inhibitors of Vif binding to APOBEC3G peptide, primary screen, biochemical, TR-FRET, GST-Vif 1-94, biotin-A3G peptide, dose response retest (AID 1117319); actives 0.57% (n = 260,000); inhibition, %, or IC50 in µM where a hit was titrated; TR-FRET GST-Vif / biotin-A3G peptide binding; higher % means a stronger effect; test concentration not given here; strong numbers were not always called active;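 active means above the screen mean plus three standard deviations and confirmed in dose response; inconclusive means results disagree or hit not tested in dose response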;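 further: Vif residues 1-94 fused to GST binding biotinylated APOBEC3G peptide 110-148; 0% = full assay without inhibitor and 100% = GST in place of GST-Vif; retest series ran down from 100 µM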
Beta apoptosis = blocks beta cell apoptosis. INS-1E cytokine-induced death, ATP luminescence, 48 h; percent of positive-control rescue, neutral wells zero. actives 0.8% (n = 300,000). protection from apoptosis, % (test concentration not listed). AID 435005;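 active means all replicates at 75% or more, or half of them and the mean; inconclusive means half reach 75% but not the mean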;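 further: 0% = cytokine-treated negative control wells and 100% = positive control rescue; higher means more ATP so stronger rescue from cytokine killing; wells of about 40 µL received 100 nL stock; the first replicate is given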
T cruzi inh = blocks replication of Trypanosoma cruzi; T. cruzi beta-gal in NIH3T3, luminescence, 90 h; inhibition, % (test concentration not listed); actives 1.4% (n = 300,000); AID 1885;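 active means mean inhibition across valid replicates above about 55%, limit read from the data; inconclusive means mean below that limit but half or more replicates reach it; inactive means mean below it, under half of replicates reach it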;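 further: signal also drops with host cell toxicity which is not excluded here; 0% = plate median of DMSO wells and 100% = zero luminescence signal; higher percent means less beta-gal luminescence so fewer parasites; stock transfer was 50 nL into about 50 µL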
RanGTP-Impb inh = disruptors of Ran-importin-beta complex formation – biochemical, FRET, CFP-Ran, YFP-importin-beta, homogeneous, primary screen | cell-free CFP-Ran/YFP-importin-beta FRET ratio | inhibition, % (no concentration beside the values) | actives 1.1% (n = 300,000) | AID 2216;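 active means most replicates above 15%; inconclusive means exactly half above 15%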;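 further: 0% = DMSO wells and 100% = Ran loaded with GDP instead of GTP; wells of about 40 µL received 100 nL stock; the first replicate is given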
MLL AF4-AF9 inh = blocks AF4 peptide binding to human AF9 | AlphaScreen, biotin-AF4 peptide binding to FLAG-AF9 | inhibition, % at 10 µM | actives 0.47% (n = 350,000) | AID 651704;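 active means every replicate reaching a set inhibition limit, whatever the replicate mean, cut at about 25% in these data; inconclusive means mean inhibition reaches that limit but some replicates miss it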;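 further: 0% = plate neutral control median and 100% = total signal loss; the record names both 10 and 1 µM as test concentration; the first replicate is given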
Target sequence (P42568 whole entry, looked up): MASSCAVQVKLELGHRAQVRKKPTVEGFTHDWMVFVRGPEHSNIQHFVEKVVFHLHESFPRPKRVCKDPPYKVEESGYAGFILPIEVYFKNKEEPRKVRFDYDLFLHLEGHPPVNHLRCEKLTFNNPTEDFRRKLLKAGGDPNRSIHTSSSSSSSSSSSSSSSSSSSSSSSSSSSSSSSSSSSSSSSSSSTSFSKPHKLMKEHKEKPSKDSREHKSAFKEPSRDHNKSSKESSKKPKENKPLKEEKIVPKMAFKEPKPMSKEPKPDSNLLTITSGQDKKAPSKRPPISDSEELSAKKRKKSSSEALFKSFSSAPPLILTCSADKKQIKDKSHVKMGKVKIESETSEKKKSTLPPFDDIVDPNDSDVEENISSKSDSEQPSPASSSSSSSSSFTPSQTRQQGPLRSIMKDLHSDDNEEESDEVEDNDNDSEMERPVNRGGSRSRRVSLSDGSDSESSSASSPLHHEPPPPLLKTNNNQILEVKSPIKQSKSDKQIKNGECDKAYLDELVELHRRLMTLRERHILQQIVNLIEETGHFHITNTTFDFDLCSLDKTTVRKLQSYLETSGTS
Calb FLC = C. albicans growth modulation with fluconazole; C. albicans CaCi-2 (fluconazole-resistant clinical isolate) + fluconazole, Alamar Blue growth, 48 h; growth inhibition, % (concentration not given with the values); actives 0.57% (n = 300,000);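 active means most replicates above 75%; inconclusive means exactly half above 75%; inactive means most below 75%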;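 further: all wells also contain fluconazole at 8 µg/ml as a sub-toxic cotreatment; 0% = median of DMSO wells and 100% = median of geldanamycin control wells; wells of about 8 µL received 7.5 nL stock; the first replicate is given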
LANA-H2B inh = blocks KSHV LANA binding to histone H2A/H2B; Q9QR71; cell-free LANA-H2A/H2B peptide, fluorescence polarization; inhibition, % (no concentration beside the values); actives 0.6% (n = 320,000); in the data active means inhibition mostly above about 10%, no sharp cut-off; inactive means mostly below about 6.7%;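 further: stock transfer was 7.5 nL into about 10 µL; 0% = median of vehicle wells and 100% = median of positive control wells; one replicate is shown; the record names a cut of 25% in any replicate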
A1 inh = inhibitors of the anti-apoptotic protein A1, read as caspase activation; MEF A1-2A-BIM cells, Caspase-Glo 3/7 luminescence, 3 h; percent of clofoctol response, vehicle zero; caspase activation, % (concentration not given with the values); actives 0.066% (n = 330,000);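 active means over half of replicate activation scores above 10%, or exactly half above 10 with the replicate mean above 10; inconclusive means replicate mean below 10 yet half the replicates above 10; inactive means over half of replicates below 10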;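 further: wells of about 30 µL received 50 nL stock; many hits fall short of the cut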
* marks the source's active call; other numbers are inactive results. Outcome played no part in choosing rows; 4.3% or so of the library scored in one or more.

How did c1ccc(CCN2CCN(c3ncnc4c3cnn4-c3ccccc3)CC2)cc1 do in these assays?
Vif TR-FRET: inconclusive; Beta apoptosis: 3; T cruzi inh: 64*; RanGTP-Impb inh: 1.9; Calb FLC: -5; LANA-H2B inh: 2.7; A1 inh: 0.5

What do the screens show for `Cc1cc(C(=O)N/N=C\c2ccc(COc3ccc([N+](=O)[O-])cc3)o2)ccc1[N+](=O)[O-]`?
Vif TR-FRET: 5%; Beta apoptosis: -8; T cruzi inh: -5; RanGTP-Impb inh: 4.7; Calb FLC: -5; LANA-H2B inh: -0.5; A1 inh: 0.3

What do the screens show for `CCCCn1c(NCc2ccc3c(c2)OCO3)nc2ccccc21`?
Beta apoptosis: 5; T cruzi inh: 8; RanGTP-Impb inh: 1.4; Calb FLC: 1; LANA-H2B inh: -2.5; A1 inh: 0.3

How did COc1cccc(CN(C(=O)c2cccc(OC)c2)C2CCS(=O)(=O)C2)c1 (stereo not given) do in these assays?
Vif TR-FRET: -7%; Beta apoptosis: -4; T cruzi inh: -1; RanGTP-Impb inh: 1.5; MLL AF4-AF9 inh: -2.8; Calb FLC: -1; LANA-H2B inh: 1.4; A1 inh: -0.3

What do the screens show for `Cc1cc(C)n2ncc(C(=O)NCc3ccccc3)c2n1`?
Vif TR-FRET: -2%; Beta apoptosis: 2; T cruzi inh: 9; RanGTP-Impb inh: -5.9; Calb FLC: 4; LANA-H2B inh: -3.9; A1 inh: -0.5

What do the screens show for `COc1ccc(C2/C=C\CN(C(=O)c3ccccc3)[C@H](Cc3ccccc3)C(=O)N2Cc2ccc(F)cc2)cc1` (stereo not given in full)?
Beta apoptosis: 94*; T cruzi inh: 16; RanGTP-Impb inh: 0.9; MLL AF4-AF9 inh: 0.4; Calb FLC: 18; LANA-H2B inh: -3.3; A1 inh: 0.3

What do the screens show for `O=C(NC1CC1)C1CCN(c2nc3ccccc3s2)CC1`?
Beta apoptosis: -5; T cruzi inh: 4; RanGTP-Impb inh: -4.4; MLL AF4-AF9 inh: -1.8; Calb FLC: -8; LANA-H2B inh: -2.7; A1 inh: -0.6

What do the screens show for `CCNS(=O)(=O)c1c(C)cc(N2CCCC2=O)cc1C`?
Vif TR-FRET: 3%; Beta apoptosis: 1; T cruzi inh: 10; RanGTP-Impb inh: -1.2; Calb FLC: -5; LANA-H2B inh: 1.6; A1 inh: 0.3

Results for CCCCN(C)CCCNC(=O)c1cccc(N2CCCC2=O)c1 ?
Vif TR-FRET: -5%; Beta apoptosis: -1; T cruzi inh: 3; RanGTP-Impb inh: 4.0; Calb FLC: 0; LANA-H2B inh: 2.9; A1 inh: 0.1

What do the screens show for `CC1Nc2ccc(C(=O)NC3CCCCC3)cc2NC1=O` (stereo not given)?
Beta apoptosis: 0; T cruzi inh: 1; RanGTP-Impb inh: -7.7; MLL AF4-AF9 inh: -0.7; Calb FLC: -1; LANA-H2B inh: -1.7; A1 inh: -0.1

What do the screens show for `c1nc(N2CCOCC2)c2[nH]cnc2n1`?
T cruzi inh: -35; RanGTP-Impb inh: -4.1; Calb FLC: -4; LANA-H2B inh: -1.6; A1 inh: -0.3

Results for O=Cc1cccc(OC(=O)Nc2ccccc2)c1 ?
Beta apoptosis: 2; T cruzi inh: -3; RanGTP-Impb inh: 6.9; MLL AF4-AF9 inh: -1.2; Calb FLC: -8; LANA-H2B inh: -3.3; A1 inh: -0.9

How did Cc1ccc2c(c1)C1C=CCC1C(C(=O)NCCCN1CCOCC1)N2 (stereo not given) do in these assays?
Beta apoptosis: -1; T cruzi inh: -16; RanGTP-Impb inh: 8.4; Calb FLC: -1; LANA-H2B inh: -3.2; A1 inh: -0.5

How did COc1ccc(O)c(/C=N/NC(=S)Nc2cccnc2)c1 do in these assays?
Vif TR-FRET: inconclusive; Beta apoptosis: 76*; T cruzi inh: -6; RanGTP-Impb inh: 5.2; MLL AF4-AF9 inh: 5.5; Calb FLC: 3; LANA-H2B inh: -0.6; A1 inh: -2.2

Results for Cc1nnc(SCCn2c(N3CCN(Cc4ccccc4)CC3)nc3c2c(=O)[nH]c(=O)n3C)s1 ?
Vif TR-FRET: 22%; Beta apoptosis: 2; T cruzi inh: 11; RanGTP-Impb inh: -5.7; Calb FLC: 5; LANA-H2B inh: 2.0; A1 inh: -0.8

What do the screens show for `O=C(N/N=C/c1ccc(OCC2COCCO2)cc1)c1ccc(Br)cc1` (stereo not given)?
Vif TR-FRET: -8%; Beta apoptosis: 11; T cruzi inh: 1; RanGTP-Impb inh: -4.4; MLL AF4-AF9 inh: -7.1; Calb FLC: -3; LANA-H2B inh: 1.3; A1 inh: 0.4

Results for CC(C)(C)C(=O)Nc1nc2c(c(=O)[nH]1)CCCC2 ?
Beta apoptosis: 6; T cruzi inh: 11; RanGTP-Impb inh: 1.4; MLL AF4-AF9 inh: -2.2; Calb FLC: -1; LANA-H2B inh: 2.1; A1 inh: -0.1

How did CCOc1ccc(N(CC(=O)Nc2ccc(C)c(Cl)c2)S(C)(=O)=O)cc1 do in these assays?
Beta apoptosis: 1; T cruzi inh: -1; RanGTP-Impb inh: 2.6; MLL AF4-AF9 inh: 1.3; Calb FLC: 45; LANA-H2B inh: -6.4; A1 inh: 0.3

Results for O=C(NCCCn1ccnc1)C1CCCN(S(=O)(=O)c2ccc(F)cc2)C1 (stereo not given) ?
Vif TR-FRET: 1%; Beta apoptosis: -6; T cruzi inh: -20; RanGTP-Impb inh: 2.6; MLL AF4-AF9 inh: -0.3; Calb FLC: -9; LANA-H2B inh: 6.8; A1 inh: -0.8

How did CCN(CC)CCN1C(=O)C2C(C(=O)Nc3cccc(SC)c3)C3C=CC2(O3)C1C(=O)NC1CCCC(C)C1C (stereo not given) do in these assays?
Beta apoptosis: -9; T cruzi inh: 14; RanGTP-Impb inh: 7.6; MLL AF4-AF9 inh: 3.7; Calb FLC: -18; LANA-H2B inh: -0.9; A1 inh: -1.4

Results for COc1ccc(Br)cc1CNC(=O)CCC(=O)N1CCSc2ccccc21 ?
Beta apoptosis: -7; T cruzi inh: -4; RanGTP-Impb inh: 1.4; MLL AF4-AF9 inh: inconclusive; Calb FLC: -2; LANA-H2B inh: -1.0; A1 inh: 0.5

Results for CSc1cccc(CN2CCCC(CNC(=O)c3ccc(F)cc3)C2)c1 (stereo not given) ?
Vif TR-FRET: -8%; Beta apoptosis: -5; T cruzi inh: 43; RanGTP-Impb inh: -3.4; MLL AF4-AF9 inh: 2.1; Calb FLC: -27; LANA-H2B inh: 1.9; A1 inh: 0.6

Results for O=C(COC(=O)C1CCCN1C(=O)C12CC3CC(CC(C3)C1)C2)c1ccc(Br)cc1 (stereo not given) ?
Vif TR-FRET: -6%; Beta apoptosis: 1; T cruzi inh: -11; MLL AF4-AF9 inh: -1.7; Calb FLC: -14; LANA-H2B inh: -2.4; A1 inh: 0.5

How did CCOC(=O)CNC(=O)CSc1nnc(COc2ccc(Cl)cc2)n1CC do in these assays?
Vif TR-FRET: 3%; Beta apoptosis: 0; T cruzi inh: 2; RanGTP-Impb inh: -0.9; Calb FLC: 0; LANA-H2B inh: 7.4; A1 inh: 0.1

Results for COc1cccc(C(Nc2ccccn2)c2oc(CO)cc(=O)c2O)c1 (stereo not given) ?
Vif TR-FRET: 23%; Beta apoptosis: -4; T cruzi inh: -6; RanGTP-Impb inh: 5.6; MLL AF4-AF9 inh: 11; Calb FLC: -28; LANA-H2B inh: 0.9; A1 inh: -1.0

Results for CC1(C)NC(=O)N(CC(O)COc2ccccc2-c2ccccc2)C1=O (stereo not given) ?
Vif TR-FRET: 2%; Beta apoptosis: -5; T cruzi inh: 0; RanGTP-Impb inh: 1.8; Calb FLC: -8; LANA-H2B inh: 3.1; A1 inh: 1.3

How did COc1cc(C2C=C(C34CC5CC(CC(C5)C3)C4)NC(=S)N2)cc(OC)c1OC (stereo not given) do in these assays?
Vif TR-FRET: 3%; Beta apoptosis: 1; T cruzi inh: 24; RanGTP-Impb inh: 0.4; Calb FLC: 0; LANA-H2B inh: 9.2; A1 inh: -0.4

What do the screens show for `Cc1ccccc1NC(=S)N1CCOCC1`?
Beta apoptosis: -1; T cruzi inh: -12; RanGTP-Impb inh: 5.1; MLL AF4-AF9 inh: -4.1; Calb FLC: -31; LANA-H2B inh: -1.0; A1 inh: -0.3

How did O=C(Nc1cc(C(F)(F)F)ccc1N1CCCCC1)c1ccco1 do in these assays?
Vif TR-FRET: -3%; Beta apoptosis: -1; T cruzi inh: -1; RanGTP-Impb inh: 4.5; Calb FLC: -3; LANA-H2B inh: -3.9; A1 inh: 1.1

How did O=C(O)CSc1ncnc2c1sc1nc(-c3ccccc3)c3c(c12)CCC3 do in these assays?
Vif TR-FRET: 3%; Beta apoptosis: 10; T cruzi inh: 4; RanGTP-Impb inh: -1.9; MLL AF4-AF9 inh: -6.7; Calb FLC: 2; LANA-H2B inh: -1.5; A1 inh: 0.3

Results for O=C(NC1CCCN(c2ccc(C(F)(F)F)cn2)C1)c1ccncc1 (stereo not given) ?
Beta apoptosis: -3; T cruzi inh: 25; RanGTP-Impb inh: 0.4; MLL AF4-AF9 inh: 0.5; Calb FLC: 48; LANA-H2B inh: 1.7; A1 inh: 1.4

What do the screens show for `Cn1c(COc2ccccc2)nnc1SCC(=O)NC1CCCC1`?
Beta apoptosis: -4; T cruzi inh: -14; RanGTP-Impb inh: 2.5; MLL AF4-AF9 inh: -5.5; Calb FLC: -7; LANA-H2B inh: 2.6; A1 inh: -0.2

What do the screens show for `O=C(c1ccc(Cl)c(NC2=NC3CS(=O)(=O)CC3S2)c1)N1CCN(c2ccc(F)cc2)CC1` (stereo not given)?
Beta apoptosis: -3; T cruzi inh: 2; RanGTP-Impb inh: 4.6; MLL AF4-AF9 inh: 1.2; Calb FLC: 8; LANA-H2B inh: 2.2; A1 inh: 0.7

What do the screens show for `CCC(C)n1c(=S)[nH]c2c(sc3ccc([N+](=O)[O-])cc32)c1=O` (stereo not given)?
Vif TR-FRET: 8%; Beta apoptosis: 28; T cruzi inh: -11; RanGTP-Impb inh: -2.1; MLL AF4-AF9 inh: -5.3; Calb FLC: 63; LANA-H2B inh: -2.8; A1 inh: -0.4

How did Cc1ccc(NC(=O)Cc2n[nH]c(=S)n2C)cc1 do in these assays?
Vif TR-FRET: 22%; Beta apoptosis: -6; T cruzi inh: -3; RanGTP-Impb inh: 6.3; MLL AF4-AF9 inh: -3.2; Calb FLC: 1; LANA-H2B inh: -2.7; A1 inh: 0.5

How did COc1cc(-c2nc(S(=O)(=O)c3ccc(C)cc3)c(N3CCOCC3)o2)cc(OC)c1OC do in these assays?
Vif TR-FRET: 29%; Beta apoptosis: 0; T cruzi inh: 7; RanGTP-Impb inh: -2.6; Calb FLC: -15; LANA-H2B inh: 6.5; A1 inh: 0.8

What do the screens show for `Cn1c(=O)n(C)c2cc(NC(=O)COc3ccccc3)ccc21`?
Beta apoptosis: 0; T cruzi inh: -1; RanGTP-Impb inh: 3.0; MLL AF4-AF9 inh: 3.1; Calb FLC: 28; LANA-H2B inh: -2.2; A1 inh: -0.3

Source: PubChem (several laboratories)
